HTT prom inh: inhibits huntingtin promoter activity | HEK293 HTT promoter firefly luciferase reporter (activity 0% = vehicle and -100% = no light), 24 h | Potency, µM (series often up to 57.5 µM), for inactives: at the top dose activity change, negative = inhibition, usual class: inhibitors | actives 0.93% (n = 48,000); active = well fitted inhibition curve with a large enough effect; inconclusive = small, poorly fitted or top-dose-only effect; inactive = no such curve, though single readings can be large or run the other way; note: nearly all actives have a fitted effect of over 50% in size
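HEK293 cells carrying firefly luciferase reporters were seeded at 2,500 per well in Opti-MEM and cultured for 24 h. They were then treated with compounds at up to 57.5 uM final for 24 h at 37 degrees C before Dual-Glo luminescence readout.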
PMP22 txn: PMP22 gene transcription modulation | S16 Pmp22-F2sN Schwann cells (luciferase reporters placed in the Pmp22 gene), FLuc/NLuc coincidence luminescence, 24 h | Potency, µM (series often up to 57.5 µM), inactives show at the highest dose activity change, negative = inhibition, actives largely listed as inhibitors | actives 2% (n = 43,000); active = clear falling dose curves in both reporters; inconclusive = both reporters move, but less clearly or upward; inactive = either reporter flat; the % is the NLuc reporter signal; note: % is set by controls: 0 for no effect and ±100 for the full control effect; some results filed as inactive show a strong effect at the top dose
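qHTS, 1536-well. Cells seeded, compounds added by pin tool, 24 h 37C. Nano-Glo reagent 1 (lysis/FLuc), 10 min RT, read; Stop&Glo, 10 min RT, read NLuc.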
Active calls of the source: *; & = joins results of further samples; [ ] = dose if it differs, or a comment. Potency is the fitted concentration of half-maximal effect.

`Cc1ccc(C(=O)c2cn(CC(=O)NC3CCCCC3)c3nc(C)ccc3c2=O)cc1` gave HTT prom inh 3.6% and PMP22 txn inconclusive.
`COc1ccc(Cl)cc1NC(=O)CSC1=Nc2ccccc2C2=NC(CC(=O)NC3CCCCC3)C(=O)N12` (stereo not given) gave HTT prom inh inconclusive and PMP22 txn inconclusive.
For CCOC(=O)c1ccc(NC(=O)Cn2cc(C(=O)c3cccs3)c3ccccc32)cc1 the results were HTT prom inh inconclusive and PMP22 txn -2.4%.
CCn1c(=O)n(-c2ccc3c(c2)OCO3)c2nc(-c3ccc(C(C)C)cc3)nc(C(N)=O)c21 was read as HTT prom inh -8.0% and PMP22 txn inconclusive.
COc1ccc(-c2noc(CSc3nnc(Cc4ccccc4)n3-c3ccc(F)cc3)n2)cc1 was read as HTT prom inh inconclusive and PMP22 txn inconclusive.
`COc1ccc(OC)c(CCNC(=O)c2ccc3c(c2)c(C)c(C)n3Cc2ccccc2)c1` gave HTT prom inh inconclusive and PMP22 txn inconclusive.
For COc1ccc(C2NC(=O)N(C)C3=C2C(=O)N(c2ccc(C)cc2)C3)cc1 (stereo not given) the results were HTT prom inh -13.1% and PMP22 txn 4.2%.
Screening CCC(=O)N1CCc2cc(S(=O)(=O)NCCC(=O)Nc3ccc(C)cc3)ccc21 returned HTT prom inh -19.5% and PMP22 txn -13.1%.
`COc1ccc(OC)c2sc(N(Cc3cccnc3)C(=O)c3ccc(C(C)=O)cc3)nc12` gave HTT prom inh inconclusive and PMP22 txn inconclusive.
CCC(CC)C(=O)Nc1c(C(=O)N2CCN(c3ccccc3)CC2)oc2ccccc12 was read as HTT prom inh inconclusive and PMP22 txn -3.7%.
For O=S(=O)(O)CCS the results were HTT prom inh 1.6%&9.6%.
`CCOCCCNC(=O)CN1C(=O)COc2ccc(S(=O)(=O)N3CCCC3)cc21` gave HTT prom inh -7.7% and PMP22 txn 1.0%.
COc1ccccc1Cc1nc2ccccc2nc1SCC(=O)Nc1ccc2c(c1)OCO2 was read as HTT prom inh -5.0% and PMP22 txn -25.4%.
CC(=O)N1CCCc2cc(S(=O)(=O)N(C)CC(=O)Nc3ccc(Cl)cc3C)ccc21 was read as HTT prom inh inconclusive and PMP22 txn inconclusive.
COc1ccc(CC(=O)Nc2ccc(-c3nc4ccccc4s3)cc2Cl)cc1 was read as HTT prom inh -27.0% and PMP22 txn 5.4%.

Some of these compounds in order of number of heavy atoms, falling.
COc1ccc(-c2noc(CSc3nnc(Cc4ccccc4)n3-c3ccc(F)cc3)n2)cc1 was read as HTT prom inh inconclusive and PMP22 txn inconclusive.
COc1ccc(CC(=O)Nc2ccc(-c3nc4ccccc4s3)cc2Cl)cc1 was read as HTT prom inh -27.0% and PMP22 txn 5.4%.
For COc1ccc(C2NC(=O)N(C)C3=C2C(=O)N(c2ccc(C)cc2)C3)cc1 (stereo not given) the results were HTT prom inh -13.1% and PMP22 txn 4.2%.
For O=S(=O)(O)CCS the results were HTT prom inh 1.6%&9.6%.

Back to the main list; the two compounds before the break are reprinted first.
CC(=O)N1CCCc2cc(S(=O)(=O)N(C)CC(=O)Nc3ccc(Cl)cc3C)ccc21 was read as HTT prom inh inconclusive and PMP22 txn inconclusive.
COc1ccc(CC(=O)Nc2ccc(-c3nc4ccccc4s3)cc2Cl)cc1 was read as HTT prom inh -27.0% and PMP22 txn 5.4%.
For CCN1C(=O)C(Cc2nc3ccccc3c(=O)n2-c2ccccc2)c2cc(Br)ccc21 (stereo not given) the results were HTT prom inh inconclusive and PMP22 txn inconclusive.
CCCCN(C)C(=O)c1ccc2c(c1)N(Cc1cccc(Cl)c1)C(=O)c1ccccc1S2=O (stereo not given) was read as HTT prom inh inconclusive and PMP22 txn -27.3%.
`COc1ccc(CCN2C(=O)N(c3ccc(F)cc3)C(=O)C2CC(=O)Nc2ccc(OC)cc2)cc1` (stereo not given) gave HTT prom inh inconclusive and PMP22 txn 0.9%.
For Cc1cc(C)cc(NC(=O)C2CCCN(C(=O)c3cnn(-c4ccccc4)c3-n3cccc3)C2)c1 (stereo not given) the results were HTT prom inh inconclusive and PMP22 txn inconclusive.
`COc1cc(OC)cc(C(=O)Nc2cc3nn(-c4ccccc4)nc3cc2Cl)c1` gave HTT prom inh 24.0% and PMP22 txn inconclusive.
`COc1ccc2c(c1)sc1ncc(C(=O)NCc3cccc(C)c3)c(=O)n12` gave HTT prom inh -6.5% and PMP22 txn 0.2%.
`C=Cc1ccc(Cn2c(C(=O)O)c(CNCCc3ccccc3)c3ccc(C)cc32)cc1` gave HTT prom inh inconclusive and PMP22 txn inconclusive.
Cc1cc(NC(=O)CSc2nc3c([nH]c4ccccc43)c(=O)n2-c2ccccc2)no1 was read as HTT prom inh -12.5% and PMP22 txn -17.4%.
For CCc1ccc(OCC(=O)Nc2c(C(=O)c3ccccc3)oc3ccccc23)cc1 the results were HTT prom inh 11.2% and PMP22 txn -11.5%.
For Cc1ccc(-c2cc3nccc(-c4cc([N+](=O)[O-])ccc4O)n3n2)cc1 the results were HTT prom inh inconclusive and PMP22 txn inconclusive.
For Cc1cc(C)cc(C(=O)Nc2ccc(-c3cn4cccnc4n3)cc2)c1 the results were HTT prom inh -12.2% and PMP22 txn 38.0%.
CCSc1nnc2c(n1)OC(CC)N(C(C)=O)c1ccccc1-2 (stereo not given) was read as HTT prom inh -13.7% and PMP22 txn -3.6%.
For Cc1oc(-c2cccc(Cl)c2)nc1CN1CCC(C(=O)NCCCN2CCN(c3ccccc3F)CC2)CC1 the results were HTT prom inh -31.9% and PMP22 txn 7.94µM*.
Screening Cc1cc(C)cc(Oc2nc3c(c(=O)n(C)c(=O)n3C)n2Cc2ccc(F)cc2)c1 returned HTT prom inh -2.7%[11.5 µM] and PMP22 txn -3.2%.
CCOc1ccccc1CNS(=O)(=O)c1csc(C(N)=O)c1 was read as HTT prom inh inconclusive and PMP22 txn 8.7%.
O=C(CCCN1C(=O)C(c2ccccc2)Oc2cccnc21)Nc1ccc(Br)cc1F (stereo not given) was read as HTT prom inh -16.3% and PMP22 txn inconclusive.
`COc1ccc(C(=O)Nc2nc3ccc(S(=O)(=O)N4CCCC4)cc3s2)cc1` gave HTT prom inh -9.7% and PMP22 txn 8.7%.
CCOC(=O)c1ccc(N2C(=O)c3n[nH]c(-c4cccs4)c3C2c2cccc(F)c2)cc1 (stereo not given) was read as HTT prom inh inconclusive and PMP22 txn inconclusive.
For COc1ccccc1Cc1nc2ccccc2nc1SCC(=O)N1CCCc2ccccc21 the results were HTT prom inh -3.2% and PMP22 txn inconclusive.
COc1ccc(N2CCN(C(=O)c3ccc4c(c3)N(Cc3ccc(F)cc3)C(=O)c3ccccc3S4=O)CC2)cc1 (stereo not given) was read as HTT prom inh inconclusive and PMP22 txn inconclusive.
`Cc1ccc2nc(-c3c[nH]c4ccccc34)c(Nc3ccccc3)n2c1` gave HTT prom inh 56.5%[activator] and PMP22 txn inconclusive.
For CCCSc1ncc(Cl)c(C(=O)Nc2ccc(S(=O)(=O)N3CCC(C)CC3)cc2)n1 the results were HTT prom inh inconclusive and PMP22 txn inconclusive.
Cc1cc(NS(=O)(=O)c2ccc(NC(=O)COc3ccc(Cl)cc3)cc2)nc(C)n1 was read as HTT prom inh -11.6% and PMP22 txn -4.1%.
`CCOc1ccc(-c2nonc2NC(=O)COc2c(C)cc(C)cc2C)cc1OCC` gave HTT prom inh -3.3% and PMP22 txn inconclusive.
For COc1ccc(NC(=O)CN2C(=O)C3(SCC(=O)N3c3cccc(OC)c3)c3ccccc32)cc1 (stereo not given) the results were HTT prom inh 0.0% and PMP22 txn -4.7%.
`Cc1ccc(C)c(S(=O)(=O)c2cn(C)c3cc(N4CCCCC4C)c(F)cc3c2=O)c1` (stereo not given) gave HTT prom inh -1.5% and PMP22 txn 16.6%.
`CCn1cc(C(=O)NCCc2ccc(C)cc2)c(=O)c2cc(S(=O)(=O)N3CCC(C)CC3)ccc21` gave HTT prom inh -5.2% and PMP22 txn inconclusive.
`O=C(CSc1ncc(CO)n1Cc1ccccc1)Nc1nc2ccccc2s1` gave HTT prom inh inconclusive and PMP22 txn inconclusive.
`COc1ccc(-n2ccn(CC(=O)Nc3ccc(C)cc3C)c(=O)c2=O)cc1` gave HTT prom inh -9.2% and PMP22 txn 8.8%.
`COCCn1c(SCC(=O)c2ccc(F)cc2)nc2cc(C(=O)NC3CCCC3)ccc2c1=O` gave HTT prom inh -7.9% and PMP22 txn -9.4%.
For CCOC(=O)c1ccc(NC(=O)CSc2nnc3c4ccccc4n(CC)c3n2)cc1 the results were HTT prom inh 0.0% and PMP22 txn -0.6%.
O=S(=O)(c1ccc(Cl)cc1)c1nnn2c1nc(NC1CCCCC1)c1sccc12 was read as HTT prom inh -2.1% and PMP22 txn inconclusive.
`COc1ccc(CCNC(=O)c2c(O)nc3c(C)cccn3c2=O)cc1OC` gave HTT prom inh -4.4% and PMP22 txn -29.0%.
CCn1cc(C(=O)NCc2ccc(F)cc2)c(=O)c2cc(S(=O)(=O)N(C)C)ccc21 was read as HTT prom inh -20.3% and PMP22 txn -24.2%.
For C[C@@H](NC(=O)CN(c1ccccc1)S(=O)(=O)N(C)C)c1ccccc1 the results were HTT prom inh -3.1% and PMP22 txn -0.1%.
For O=C1C(CCS(=O)c2ccccc2)C(=O)N(c2ccccc2)N1c1ccccc1 (stereo not given) the results were HTT prom inh 2.7%.
Screening COCCNC(=O)c1nn(-c2ccc(C)cc2)c(=O)c2c1c1ccccc1n2C returned HTT prom inh -19.9% and PMP22 txn inconclusive.
Cc1ccc(NC(=O)Cn2c(=O)ccc3cc(S(=O)(=O)N4CCC(C)CC4)ccc32)cc1Cl was read as HTT prom inh inconclusive and PMP22 txn inconclusive.
For COc1ccccc1CNc1nc2nc(C)c(Cl)c(C)n2n1 the results were HTT prom inh -16.9% and PMP22 txn -4.3%.
For COc1ccc(OC)c(CCNC(=O)c2cnn(-c3ccccc3)c2-n2cccc2)c1 the results were HTT prom inh inconclusive and PMP22 txn inconclusive.
Screening Cc1cccc(N2CCN(C(=O)C3CCN(c4ncnc5c4nc4n5CCCCC4)CC3)CC2C)c1 (stereo not given) returned HTT prom inh 25.1µM* and PMP22 txn inconclusive.
For Cc1cccc(OCC(=O)Nc2nc3c(s2)CC(C(C)(C)C)CC3)c1C (stereo not given) the results were HTT prom inh -5.7% and PMP22 txn -3.2%.
`Cc1cccc(NC(=O)CSc2nnc(N)s2)c1` gave HTT prom inh 6.1% and PMP22 txn -2.8%.
Screening COc1ccc(Cn2cc(C(=O)c3ccc(C)c(C)c3)c(=O)c3ccccc32)cc1 returned HTT prom inh inconclusive and PMP22 txn inconclusive.
`O=C(Nc1nnc(N2CCCCCC2)s1)Nc1cc(F)ccc1F` gave HTT prom inh 0.5% and PMP22 txn inconclusive.
For COc1ccc(CCNc2ncnc3c2cnn3-c2cccc(Cl)c2)cc1 the results were HTT prom inh -44.0% and PMP22 txn -6.7%.
Screening CC(C)CC1N=C2c3ccccc3N=C(SCC(=O)NCCc3ccc(Cl)cc3)N2C1=O (stereo not given) returned HTT prom inh -9.9% and PMP22 txn 12.8%.
For COc1ccc(CCNC(=O)c2ccc3c(c2)N(Cc2c(F)cccc2Cl)C(=O)CS3)cc1OC the results were HTT prom inh inconclusive and PMP22 txn inconclusive.
For COc1ccccc1C1C=C(c2ccc(Cl)cc2)Nc2nc(-c3ccc(Cl)cc3)nn21 (stereo not given) the results were HTT prom inh inconclusive and PMP22 txn inconclusive.
For Cc1ccc(NC(=O)Cn2cc(C(=O)c3ccco3)c3ccccc32)cc1 the results were HTT prom inh inconclusive and PMP22 txn inconclusive.
For O=C(NCc1ccc(F)cc1)c1ccc(CS(=O)(=O)c2ccc(Cl)cc2)o1 the results were HTT prom inh inconclusive and PMP22 txn inconclusive.
Screening Clc1ccccc1CSc1nnc(C2CCNCC2)o1 returned HTT prom inh -8.7% and PMP22 txn 1.9%.
`COc1ccc(CCNc2nccn(-c3ccc(C)c(C)c3)c2=O)cc1OC` gave HTT prom inh inconclusive and PMP22 txn inconclusive.
Screening COc1ccc(C2C=C(c3ccccc3)Nc3nc(NS(=O)(=O)c4ccc(C)cc4)nn32)cc1 (stereo not given) returned HTT prom inh -2.8% and PMP22 txn -128.0%.
`COc1nc(C)cnc1NS(=O)(=O)c1cccnc1-c1ccc(-c2nnco2)cc1` gave HTT prom inh 8.7%.
For Cc1c(CC(=O)N2CCCCC2)c(=O)oc2cc3occ(C(C)(C)C)c3cc12 the results were HTT prom inh -4.1% and PMP22 txn -2.3%.
Screening COc1ccc(-c2cn3c(n2)sc2cc(C(=O)Nc4c(C)cccc4C)ccc23)cc1 returned HTT prom inh -12.7% and PMP22 txn -12.0%.
Screening Cc1ccc(C(=O)Nc2cc(-c3nc4cc(Cl)ccc4o3)ccc2C)c(C)c1 returned HTT prom inh 11.4% and PMP22 txn -7.4%.
For COc1ccc(Cl)cc1NC(=O)c1ccc2c(c1)CCCN2S(C)(=O)=O the results were HTT prom inh -18.0% and PMP22 txn inconclusive.
Screening COc1ccc(OC)c(CNC(=O)CSc2c3c(nc4cc(Cl)ccc24)CCCC3)c1 returned HTT prom inh -11.5% and PMP22 txn inconclusive.
`CCOc1ccc(C2c3[nH]c4ccccc4c3CCN2C(=O)CCc2ccccc2)cc1` (stereo not given) gave HTT prom inh -18.5% and PMP22 txn 10.0%.
